Vaccinia inh = Vaccinia orthopox stage-specific inhibition | hit rate 0.01% among 89,000 | activity change (mCherry), % (concentration not given with the values) | Vaccinia-infected cells, mCherry/Venus stage reporter fluorescence; active compounds read low; some inactives read as strong as hits;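 active = mCherry past -33% and 40 or more points under the early reporter, replicates agreeing; inconclusive = past -33% without that gap or agreement; tested in A549 cells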;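 also: scaled between vehicle wells and reference inhibitor wells; 23 nL library stock went into each well; one replicate is shown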
Vaccinia inh Venus = further read-out of Vaccinia inh, marked with its call; activity change (Venus), %; measured here: Venus reporter, other viral stage;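 negative = less Venus signal; first of two replicates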
* = called active by the depositor; ? = inconclusive; nt = no result given; & = joins results of further samples. Only part of the results is shown; the hit share may differ from the screen's.

Below each SMILES – Vaccinia inh | Vaccinia inh Venus
CCC(=O)N1CC2(C1)CN(S(=O)(=O)c1ccccc1)[C@H](CO)c1[nH]c3cc(OC)ccc3c12
  25 | 10
C[C@@H]1CCCCO[C@@H](CN(C)CC2CCCCC2)[C@@H](C)CN([C@@H](C)CO)C(=O)c2cc(NC(=O)c3ccccc3)ccc2O1
  ? | nt
C[C@@H]1CN([C@@H](C)CO)C(=O)c2cc(NS(=O)(=O)c3cn(C)cn3)ccc2O[C@H]1CN(C)S(=O)(=O)c1ccc(F)cc1
  1 | 4
O=C(Cc1ccccc1)N[C@@H]1C=C[C@H](CC(=O)N2CCOCC2)O[C@H]1CO
  -3 | -3
Cc1noc(C)c1NC(=O)Nc1ccc2c(c1)C(=O)N([C@@H](C)CO)C[C@H](C)[C@@H](CN(C)C(=O)C1CCCCC1)OCCCC[C@H](C)O2
  6 | 3
C[C@H]1CN([C@@H](C)CO)C(=O)c2cc(-c3cncnc3)cnc2O[C@H]1CN(C)C(=O)CN1CCOCC1
  14 | 9
CCCNC(=O)N[C@H]1CC[C@@H](CCn2cc(C3CCCCC3)nn2)O[C@@H]1CO
  -6 | -4
C[C@@H]1CN([C@@H](C)CO)C(=O)c2ccccc2-c2ccccc2CO[C@H]1CN(C)C(=O)[C@H]1CCCN1C
  21 | 4
O=C(C[C@H]1C[C@@H]2c3cc(NC(=O)c4cccnc4)ccc3O[C@@H]2[C@@H](CO)O1)NCc1ccncc1
  8 | -2
CCCN1[C@@H]2c3ccc(-c4cncnc4)c(=O)n3C[C@@H]2[C@@H](CO)[C@@H]1C(=O)OC
  7 | 5
C[C@@H]1CN([C@@H](C)CO)C(=O)c2cc(NC(=O)Nc3ccc4c(c3)OCO4)ccc2O[C@H]1CN(C)S(=O)(=O)c1ccc(Cl)cc1
  3 | 4
COc1cccc(NC(=O)N2C[C@@H](O)COC[C@@H]3O[C@H](CC(=O)NC4Cc5ccccc5C4)CC[C@H]32)c1
  1 | -4
CCC(=O)Nc1ccc2c(c1)OC[C@@H](C)N(Cc1ccccc1C(=O)O)C[C@@H](C)[C@H](OC)CN(C)C2=O
  -8 | -8
COCC(=O)Nc1ccc2c(c1)OC[C@H](C)N(CC1CC1)C[C@H](C)[C@@H](OC)CN(C)C2=O
  9 | 5
C[C@H](O)C#Cc1ccc2c(c1)O[C@H](CN(C)Cc1cncnc1)[C@H](C)CN([C@H](C)CO)S2(=O)=O
  9 | 8

One compound at a time (already shown):
CCCNC(=O)N[C@H]1CC[C@@H](CCn2cc(C3CCCCC3)nn2)O[C@@H]1CO is listed as Vaccinia inh = -6; Vaccinia inh Venus = -4
CCCN1[C@@H]2c3ccc(-c4cncnc4)c(=O)n3C[C@@H]2[C@@H](CO)[C@@H]1C(=O)OC is listed as Vaccinia inh = 7; Vaccinia inh Venus = 5

(list continues)
Below each SMILES – Vaccinia inh | Vaccinia inh Venus
O=C(NCC(F)(F)F)[C@@H]1[C@@H](CO)[C@@H]2Cn3c(cccc3=O)[C@@H]2N1C(=O)C1CCCC1
  19 | 14
COC(=O)/C(=C\Nc1ccc(Oc2ccccc2OC(C)C)nc1)NC(=O)c1ccccc1
  11 | 20
C[C@@H]1CN([C@H](C)CO)C(=O)c2cc(-c3ccc(F)cc3)cnc2O[C@@H]1CN(C)C(=O)Nc1ccccc1F
  0 | 1
O=C(C[C@H]1CC[C@@H]2[C@H](COC[C@H](O)CN2Cc2cccc(F)c2)O1)NCCc1ccncc1
  9 | 5
COc1ccc(NC(=O)Nc2ccc3c(c2)CC(=O)N([C@@H](C)CO)C[C@@H](C)[C@@H](CN(C)Cc2ccc(C(=O)O)cc2)O3)cc1
  9 | 8
CO[C@@H]1CN(C)C(=O)c2ccc(NC(=O)Cc3ccccc3)cc2OC[C@@H](C)N(C(C)=O)C[C@H]1C
  4 | 4
Cc1noc(C)c1NC(=O)N(C)C[C@H]1OCc2cn(nn2)CCCC(=O)N([C@@H](C)CO)C[C@@H]1C
  7&0 | 1&0
C[C@H]1CN([C@@H](C)CO)C(=O)c2cccc(NS(=O)(=O)c3ccc(Cl)cc3)c2O[C@H]1CN(C)Cc1ccc(C(=O)Nc2ccccc2N)cc1
  -12 | -7
Cc1noc(C)c1NC(=O)Nc1ccc2c(c1)C(=O)N([C@@H](C)CO)C[C@@H](C)[C@H](CN(C)C(=O)Nc1c(C)noc1C)O2
  6 | 0
O=C(C[C@@H]1CC[C@@H]2[C@H](COC[C@@H](O)CN2C(=O)Nc2ccc3c(c2)OCO3)O1)N1CCN(c2ccccc2)CC1
  -31 | -24
C[C@@H]1CN([C@@H](C)CO)C(=O)CCCn2cc(nn2)CO[C@@H]1CN(C)C(=O)Oc1cccc2ccccc12
  12 | 7
COc1ccc(S(=O)(=O)N(C)C[C@H]2Oc3c(NC(=O)Nc4cccc5ccccc45)cccc3C(=O)N([C@H](C)CO)C[C@H]2C)cc1
  -32 | -25
C[C@H]1CN([C@@H](C)CO)C(=O)c2cc(C#Cc3ccccc3)cnc2O[C@@H]1CN(C)C(=O)c1ccccc1F
  -21 | -22
C[C@H](CO)N1C[C@H](C)[C@@H](CN(C)Cc2ccc(C(F)(F)F)cc2)Oc2ccc(N(C)C)cc2CC1=O
  ? | nt
COc1ccc2c3c(n(C)c2c1)[C@@H](CO)N(C(=O)C1CC1)CC31CCN(C(=O)c2ccncc2)CC1
  4 | -2
O=C(C[C@H]1C=C[C@@H](NC(=O)C2CC2)[C@@H](CO)O1)NCc1ccncc1
  -10 | -9
CO[C@@H]1CN(C)C(=O)c2cc(NC(=O)Nc3cc(F)ccc3F)ccc2OC[C@H](C)N(C(=O)c2cnccn2)C[C@@H]1C
  -2 | 1
C[C@H](CO)N1C[C@H](C)[C@@H](CN(C)Cc2ccc3c(c2)OCO3)Oc2ccc(NC(=O)Cn3cnnn3)cc2C1=O
  5 | 0
CN(C)C(=O)C[C@@H]1CC[C@H]2[C@H](COc3ccc(NC(=O)C4CCCC4)cc3C(=O)N2C)O1
  8 | 6
CC(C)CC#Cc1ccc([C@H]2[C@H]3CN(C(=O)Nc4ccccc4)CCCCN3[C@H]2CO)cc1
  ? | nt
O=C(C[C@H]1CC[C@@H]2[C@H](COC[C@@H](O)CN2Cc2ccccc2)O1)N[C@H]1CCN(Cc2ccccc2)C1
  -9 | -5
CC(C)NC(=O)N[C@H]1CC[C@@H](CCn2cc(-c3ccccc3)nn2)O[C@@H]1CO
  1 | 8
CCCNC(=O)C[C@@H]1CC[C@@H]2[C@H](COc3ccc(NC(=O)c4ccccc4)cc3C(=O)N2C)O1
  4 | 12
CC(=O)N(C)C[C@@H]1Oc2cc(-c3ccc(C)cc3)ccc2S(=O)(=O)N([C@@H](C)CO)C[C@H]1C
  -4 | -14
C[C@@H]1CCCCO[C@@H](CN(C)S(=O)(=O)c2cccs2)[C@@H](C)CN([C@H](C)CO)C(=O)c2cc(NC(=O)CCCCCC(=O)Nc3ccccc3N)ccc2O1
  13 | 9
COc1ccccc1S(=O)(=O)N(C)C[C@@H]1OCc2cn(nn2)CCCC(=O)N([C@@H](C)CO)C[C@H]1C
  10 | 13
COc1ccc(NC(=O)Nc2cccc3c2O[C@H](CN(C)S(=O)(=O)c2cccs2)[C@@H](C)CN([C@@H](C)CO)C3=O)cc1
  15 | 21
CC(C)(C)[C@H]1C=C(C(=O)N2CCCCCCC2)O[C@@H](OCc2ccc(CO)cc2)C1
  18 | 16
C[C@H](NC(=O)C[C@@H]1C=C[C@@H](NC(=O)c2cccnc2)[C@@H](CO)O1)c1ccccc1
  20 | 9
CN1C[C@H]2[C@@H](c3ccccc31)[C@H](CO)N2C(=O)C1CCCCC1
  -3 | 0
Cc1noc(C)c1S(=O)(=O)Nc1ccc2c(c1)C(=O)N([C@H](C)CO)C[C@@H](C)[C@@H](CN(C)Cc1ccc(-c3ccccc3)cc1)O2
  -32 | -30
C[C@@H]1CN([C@H](C)CO)C(=O)c2cc(NC(=O)Cc3cn(C)c4ccccc34)ccc2O[C@H]1CN(C)Cc1ccc(C(=O)Nc2ccccc2N)cc1
  32 | 17
C[C@@H]1CN([C@H](C)CO)C(=O)c2cc(NC(=O)NC3CCCCC3)ccc2O[C@@H]1CN(C)Cc1ccc2c(c1)OCO2
  10 | 3
COCCNC(=O)c1cc2c(c(-c3cccc(C4=CCCCC4)c3)n1)[C@@H](CCO)N([S@](=O)C(C)(C)C)C2
  6 | 24
C[C@@H]1CN([C@@H](C)CO)S(=O)(=O)c2ccc(C3=CCCC3)cc2O[C@H]1CN(C)Cc1ccncc1
  -1 | 0
C[C@@H]1CCCCO[C@@H](CN(C)C(=O)Nc2cccc3ccccc23)[C@@H](C)CN([C@H](C)CO)C(=O)c2cc(NS(C)(=O)=O)ccc2O1
  34 | 21
O=C(C[C@H]1CC[C@H](NS(=O)(=O)c2ccc(F)cc2)[C@H](CO)O1)N1CCC(Cc2ccccc2)CC1
  10 | 12
CNC[C@@H]1Oc2ncc(C#Cc3cccc(OC)c3)cc2C(=O)N([C@H](C)CO)C[C@@H]1C
  -7 | -2
Cc1noc(C)c1S(=O)(=O)Nc1ccc2c(c1)C(=O)N([C@H](C)CO)C[C@H](C)[C@@H](CN(C)Cc1ccc(C(=O)Nc3ccccc3N)cc1)OCCCC[C@@H](C)O2
  1 | -2
C[C@@H]1CN([C@@H](C)CO)C(=O)Cc2cc(NC(=O)Nc3ccccc3)ccc2O[C@H]1CN(C)S(=O)(=O)c1cn(C)cn1
  17 | 17
O=C(Nc1ccccc1Cl)N1[C@@H]2CNC[C@H]1C2c1ccc(-c2ccccc2)cc1 (stereo partly specified)
  -3&8 | -5&2
C[C@H](CO)N1C[C@H](C)[C@@H](CN(C)S(=O)(=O)c2cccs2)OCCCC[C@H](C)Oc2ccc(NC(=O)Nc3ccc4c(c3)OCO4)cc2C1=O
  6 | 8
C/C=C/c1cnc2c(c1)C(=O)N([C@@H](C)CO)C[C@H](C)[C@H](CN(C)Cc1ccccc1)O2
  25 | 9
C[C@@H]1CN([C@H](C)CO)C(=O)c2cc(-c3cccc(F)c3)cnc2O[C@H]1CN(C)Cc1ccncc1
  4 | 2
C[C@H](O)C#Cc1ccc([C@@H]2[C@H](CO)N3CCCCN(C(=O)c4ccc(F)cc4)C[C@@H]23)cc1
  32 | 7
COc1ccc(OC(=O)N(C)C[C@@H]2OCc3ccccc3-c3ccccc3C(=O)N([C@H](C)CO)C[C@@H]2C)cc1
  -1 | -9
C[C@@H]1CN([C@H](C)CO)C(=O)CCCn2nncc2CO[C@@H]1CN(C)C(=O)Nc1cccc2ccccc12
  6 | 19
C[C@H](CO)N1C[C@H](C)[C@@H](CN(C)Cc2cccc(F)c2)Oc2cc(-c3ccc(C#N)cc3)ccc2S1(=O)=O
  ? | nt
CCCC#Cc1cnc2c(c1)C(=O)N([C@@H](C)CO)C[C@H](C)[C@H](CN(C)C(=O)Nc1cccc(F)c1)O2
  -31 | -20
O=C(N[C@H]1CC[C@H](CCNS(=O)(=O)c2ccc(Cl)cc2)O[C@H]1CO)c1ccccn1
  -14 | -5
COc1ccc2c3c(n(C)c2c1)[C@H](CO)N(C(=O)NC1CCCC1)CC31CN(C)C1
  5 | 12
C[C@H]1CN([C@@H](C)CO)C(=O)Cc2cc(NC(=O)CCCCCC(=O)Nc3ccccc3N)ccc2O[C@H]1CN(C)C(=O)Nc1ccc2c(c1)OCO2
  11 | 7
C[C@H](NC(=O)N(C)C[C@H]1OCc2ccccc2-c2ccccc2C(=O)N([C@@H](C)CO)C[C@@H]1C)c1ccccc1
  8 | 7
CCC(=O)Nc1ccc2c(c1)OC[C@@H](C)NC[C@@H](C)[C@@H](OC)CN(C)C2=O
  -3 | -3
COc1ccccc1C(=O)Nc1ccc2c(c1)OC[C@@H](C)N(C)C[C@H](C)[C@@H](OC)CN(C)C2=O
  -9 | -8
Cc1noc(C)c1NC(=O)N[C@@H]1C=C[C@H](CC(=O)NCCCN(C)C)O[C@@H]1CO
  7 | -3
O=C(C[C@@H]1C[C@@H]2c3cc(NC(=O)Nc4ccc(C(F)(F)F)cc4)ccc3O[C@@H]2[C@H](CO)O1)NCC1CC1
  -11 | -6
COc1ccc(S(=O)(=O)Nc2cccc3c2O[C@@H](CN(C)S(=O)(=O)c2cccs2)[C@H](C)CN([C@H](C)CO)C3=O)cc1
  8 | -3
CN1CCN(C(=O)C[C@@H]2CC[C@@H]3[C@H](COC[C@H](O)CN3CC3CCOCC3)O2)CC1
  13 | 8
COCC(=O)N1[C@H](CO)[C@H](c2ccccc2)C12CN(C(=O)c1cccnc1)C2
  -1 | 10

By substructure, the compounds so far containing a CF3 group (three)
Below each SMILES – Vaccinia inh | Vaccinia inh Venus
O=C(NCC(F)(F)F)[C@@H]1[C@@H](CO)[C@@H]2Cn3c(cccc3=O)[C@@H]2N1C(=O)C1CCCC1
  19 | 14
C[C@H](CO)N1C[C@H](C)[C@@H](CN(C)Cc2ccc(C(F)(F)F)cc2)Oc2ccc(N(C)C)cc2CC1=O
  ? | nt
O=C(C[C@@H]1C[C@@H]2c3cc(NC(=O)Nc4ccc(C(F)(F)F)cc4)ccc3O[C@@H]2[C@H](CO)O1)NCC1CC1
  -11 | -6

Continuation.
Below each SMILES – Vaccinia inh | Vaccinia inh Venus
COc1cccc(C#Cc2ccc3c(c2)O[C@H](CN(C)C(C)=O)[C@@H](C)CN([C@H](C)CO)S3(=O)=O)c1
  ? | nt
C[C@@H]1CN([C@@H](C)CO)C(=O)Cc2cc(NS(=O)(=O)c3cccs3)ccc2O[C@H]1CN(C)C(=O)Nc1ccc(F)cc1
  25 | 6
C[C@@H]1CN([C@H](C)CO)C(=O)c2cccc(NS(=O)(=O)c3ccc(F)cc3)c2O[C@H]1CN(C)CC1CCCCC1
  14 | 10
C[C@@H]1CN([C@@H](C)CO)C(=O)c2cccc(NC(=O)Nc3ccccc3)c2O[C@@H]1CN(C)Cc1ccncc1
  2 | 1

High-throughput results: PubChem BioAssay, Broad Institute
